AID504770 = E. coli YBA685 growth inhibition, screen for V. cholerae RctB inhibitors. AID 504770. z-score (concentration not given with the values). E. coli YBA685 rctB-dependent plasmid, OD600 growth, 3 h; active compounds read low. actives 0.27% (n = 130,000);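 active means z-score under -2 on both plates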;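 further: wells of about 30 µL received 100 nL stock; score is relative to mean and SD of the test wells; the first replicate is given; strong numbers were not always called active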
Ba CapD inh = blocks the Bacillus anthracis CapD enzyme; purified CapD enzyme, fluorescence intensity read-out; active compounds read low; some hits fall short of the stated cut; z-score (no concentration beside the values); actives 0.23% (n = 140,000);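 active means z-score under -4 in either of two replicates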;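 further: stock transfer was 100 nL into about 40 µL; score is relative to mean and spread of the plate; one replicate is shown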
Active calls of the source: *; nt = not tested or not shown; & = joins results of further samples.

Order of values – AID504770, Ba CapD inh
C=CCNC(=O)CSc1ccc(C)cc1
  -0.4, nt
O=C(Cc1cccs1)NCc1ccc(-c2ccc(F)cc2F)o1
  -0.15, 0.02
O=C(Nc1cccc(C(F)(F)F)c1)c1ccc(F)c(S(=O)(=O)N2CCN(c3ccc(F)cc3)CC2)c1
  nt, 0.61
CCCn1nnnc1NC(=O)c1cccnc1Cl
  -0.4, nt
Cc1nnc(NC(=O)c2ccccc2SCC(=O)NC2CCCCCCC2)o1
  -0.6, nt
NCC(O)C(O)C(O)c1cnn(-c2ccccc2)n1 (stereo not given)
  -0.4, nt
Cc1ccc(OCCn2cnc3ccccc3c2=O)cc1
  0.7, nt
CCN(CC)c1ccc(C(=O)N/N=C2\CC3CC=CC23)cc1 (stereo not given)
  0.75, nt
Cc1cc(C)n(CCCNC(=O)CSc2ccc(S(=O)(=O)N(C)C3CCCCC3)cn2)n1
  0.2, nt
COc1ccc(CSc2nnc(SCc3cc(C)on3)s2)cc1
  -0.1, nt
CN1CCN(Cc2c(O)ccc3c(=O)c(Oc4ccccc4Br)c(C(F)(F)F)oc23)CC1
  nt, 0.11
O=C(O)c1cccnc1-c1nc2ccccc2s1
  -0.85, 16
CN1CCN(c2ccc(NS(=O)(=O)c3ccc(Cl)cc3)cc2)CC1
  nt, -0.27
Cc1cc(Cl)ccc1NC(=S)NCCCO
  -0.85, 0.06
Cc1cc(C(=O)COc2ccc3c(c2)CCC3)c(C)n1C
  1.7, nt
COc1ccc(Oc2coc3cc(OCC(=O)O)ccc3c2=O)cc1
  0.6, -0.25
O=C(NC1CCCCC1)Oc1ccccc1
  -0.8, -0.65
O=C(c1ccc(F)cc1Cl)N1CCCC1
  -0.65, -0.78
CC(C)N(C(=O)CSc1ncccc1C(=O)O)c1ccccc1
  -0.65, nt
c1cnc2c(OCCN3CCCCC3)cccc2c1
  -0.15, -0.23
Cc1nn(CC(=O)O)c2ccccc12
  -0.85, -0.15
CC(=O)OCC12C3C4C5C3C13CC53C2C4(F)F (stereo not given)
  0.45, nt
CCOC(=O)c1ccc(N=Cc2ccccn2)cc1
  -0.1, 0.3
Cc1nc(CS(=O)(=O)c2ccccn2)sc1C(=O)NN
  -0.45, 9
CN(C)c1ncc(S(=O)(=O)c2ccc(Cl)cc2)c(N2CCCC2)n1
  nt, -0.17
O=c1[nH]c2ccccc2nc1NCc1ccccc1
  -0.4, nt
CCC(C(=O)OC)n1cnc2sc(C(=O)Nc3ccccc3)c(C)c2c1=O (stereo not given)
  0, -0.66
O=C(Cc1c(Sc2ccccc2)c2ccccc2n1Cc1ccccc1)Nc1ccc(Cl)cc1
  nt, -0.14
CN1CCCC(OC(=O)c2ccccc2I)C1 (stereo not given)
  0.65, 0.66
O=C1CN(Cc2c(-c3ccccc3)[nH]c3ccccc23)CCN1
  -0.4, nt
Cc1cc(Nc2ccc(NNC(=O)c3ccc(F)cc3)nn2)n(-c2ccccc2)n1
  -0.2, nt
C=C[C@@]1(C)CC(=O)[C@@]2(O)[C@](C)(O1)[C@@H](OC(C)=O)[C@@H](O)C1C(C)(C)CC[C@H](O)[C@@]12C (stereo not given in full)
  0.15, 1
CCOc1ccc2oc(=O)cc(CN(CCCN3CCOCC3)Cc3ccco3)c2c1
  0.35, 0.91
N=c1oc(=N)c2ccccc2o1
  -1.2, nt
CCCCCCc1ccc(C(=O)NNC(=O)Cn2cnc(Cl)c2Cl)cc1
  nt, -0.55
Cc1ccc(OCc2ccc(C(=O)NC(c3ccccc3)c3ccccc3)o2)cc1C
  0, -1
CCOC(=O)C1c2ccccc2Oc2ccccc21
  nt, -0.23
Cc1cc(-c2onc(C)c2C(N)=S)no1
  0, 0.36
COC(=O)c1ccc(CO/N=C(\N)c2cc(Cl)c(N)c(Cl)c2)o1
  nt, 0.26
CCN(CC)S(=O)(=O)c1ccc(NC(=O)COc2ccc(Cl)cc2Cl)cc1
  0, -0.28
CCC(C)n1c(=O)[nH]c2c1c(=O)n(C)c(=O)n2C (stereo not given)
  -0.95, -0.38
CCC1(C)CC(CCNCc2ccc(OC)cc2)(c2ccccc2OC)CCO1 (stereo not given)
  nt, -0.39
COc1ccccc1NC(=O)/N=C1\NC(=O)C(C(C)C)O1 (stereo not given)
  -0.2, nt
c1csc(NC2CCCCC2)n1
  -1.2, 0.12
CCOC(=O)c1sc(=Nc2ccccc2)n(-c2ccccc2)c1C
  -0.9, nt
Cc1cc(OCC(=O)N(C)c2ccccc2)cc2c1C(=O)CC(C)(C)O2
  0.1, 1.1
CCOC(=O)CSc1nc2ccc([N+](=O)[O-])cc2s1
  nt, -0.11
Cc1ccccc1Nc1nc(N)nc(Cn2ccsc2=N)n1
  -0.05, nt
CCc1ccccc1N1CC(c2nc3ccccc3[nH]2)CC1=O (stereo not given)
  -0.8, 2.6
N#Cc1ccccc1S(=O)(=O)N1CCCC1CO (stereo not given)
  nt, -0.15
N#Cc1cc(Sc2ccccn2)c(Sc2ccccn2)cc1C#N
  0.95, 0.04
COc1cc(C2Nc3ccc4ccccc4c3C3=C2C(=O)CC(C)(C)C3)ccc1OC(C)C(=O)O (stereo not given)
  nt, 40
Cc1c(Br)c(C(F)(F)F)nn1CC(=O)Nc1sc2c(c1C#N)CCC(C)C2 (stereo not given)
  nt, -1.4
Cc1nc(-c2ccccc2)sc1C(=O)/C=C/c1c(F)cccc1Cl
  nt, -1
CCN1CCN(c2nc(-c3ccccc3F)nc3ccccc23)CC1
  nt, -0.34
Cc1ccc(S(=O)(=O)/N=C/c2ccccc2O)cc1
  -0.75, 0.04
C=CCn1c(=O)[nH]c2nc3cc(N=CN(C)C)c(C)cc3nc2c1=O
  -0.3, 29
CSC1=NCCN1C(=O)c1c(-c2ccccc2Cl)noc1C
  nt, 0.15
N#Cc1cc(C#N)c(SCC(=O)NCCN2C(=O)CSC2=O)nc1N
  0.7, nt
O=C(N/C(=C/c1ccccc1)S(=O)(=O)c1ccc(Cl)cc1)c1ccccc1
  -0.7, 0.11

(listing goes on)
Order of values – AID504770, Ba CapD inh
COc1ccc(CN2CCN(S(=O)(=O)c3cc(Br)ccc3Br)CC2)cc1OCc1ccccc1
  nt, 0.085
O=c1c2c3c(sc2n2cnnc2n1-c1ccccc1)CCCCC3
  -0.1, 0.095
O=C(COC(=O)CN1C(=O)C2CC=CCC2C1=O)Nc1cccc2nsnc12 (stereo not given)
  -0.35, nt
CCN(CC)C(=O)CSc1nnc(C)s1
  -0.45, nt
COc1ccccc1N1CCN(C(=O)c2ccc(Cl)cc2Cl)CC1
  0.25, 1.3
CCOc1cc(/C=C2/C(=O)NC(=O)N(c3ccccc3)C2=O)ccc1OCC(=O)O
  nt, 0.75
COc1ccc(/C=N/NC(=O)/C=C/c2ccc3c(c2)OCO3)c(C)c1C
  nt, 0.61
COCCCNC(=O)C(=O)Nc1cc(C)ccc1C
  nt, -0.07
O=C(CSC1=NNC(c2ccccn2)S1)Nc1ccccc1 (stereo not given)
  1.3, -1.3
S=C(NCC1CCCO1)SCc1cn2ccccc2n1 (stereo not given)
  -0.9, 0.66
CCOC(=O)c1ccsc1NC(=O)C1C2C=CC(C2)C1C(=O)O (stereo not given)
  2.4, -0.33
COc1ccc(C2NC(=S)NC(C)=C2C(N)=O)cc1 (stereo not given)
  1.4, -0.35
O=C1CC(c2ccccc2Br)c2c(ccc3ccccc23)N1 (stereo not given)
  nt, 1.9
CC1CCCN(C(=O)c2ccc(Cl)nc2)C1 (stereo not given)
  -0.95, 0.76
Cc1cc(C)n2nc(SC(C)C(=O)NCc3ccc4c(c3)OCO4)nc2n1 (stereo not given)
  1.4, 0.55
CN1CCN(c2ccccc2NC(=O)c2cccnc2Sc2ccccc2)CC1
  -0.2, nt
CCOC(=O)C1=C(C)NC2=C(C(=O)CC(C)(C)C2)C1c1ccc(OCc2cccc(F)c2)c(OC)c1 (stereo not given)
  nt, 3.1
O=C(CSc1nc2cc(Cl)ccc2o1)NCc1ccccc1
  0.5, -1.2
O=C(Nc1ccccc1C(=O)N1CCN(Cc2ccccc2)CC1)c1ccccn1
  -0.35, 0
CN(Cc1nc2ccccc2c(=O)[nH]1)Cc1cc(=O)oc2cc3c(cc12)CCC3
  -0.8, nt
O=C(O)CCN1C(=O)c2cccnc2Sc2ccccc21
  -0.25, 0.26
O=C(CSc1nnc(Cc2cc(=O)[nH]c(=O)[nH]2)n1-c1ccccc1)N1CCCc2ccccc21
  -1.2, -0.2
CCCCS(=O)(=O)NC1=NCN(CCO)CN1
  -0.4, 0.015
O=C(c1ccc(Oc2ccccc2)cc1)c1coc2ccc(O)cc12
  0.5, -0.23
O=C(Nc1ccncc1)c1ccc(F)cc1
  -1.6, 0.2
CCOC(=O)c1cnn(-c2c([N+](=O)[O-])c(C)nn2C)c1N
  nt, 0.045
CCCCN(C)c1ncnc2oc(C)c(C(=O)OCC)c12
  0.2, 0.1
CCOC(=O)c1ccc(N=c2ssc3c2-c2cc(C)c(C)cc2NC3(C)C)cc1
  nt, 0.31
COc1ccc(S(=O)(=O)Nc2cc(C(=O)N3CCOCC3)ccc2N2CC3CC(C2)c2cccc(=O)n2C3)cc1 (stereo not given)
  nt, 0.27
Cc1ccc2nc(NCc3ccccc3)sc2c1
  -0.35, -0.32

Other compounds follow.
| SMILES | AID504770 | Ba CapD inh |
| --- | --- | --- |
| Cn1c(=O)[nH]c(=O)c2c1nc(N1CCCC1)n2CCO | -0.4 | nt |
| CCCCN(C)C(=O)c1sc2ncn(CCOCC)c(=O)c2c1C | nt | 6 |
| Cc1ccc(CC(=S)N2CCOCC2)cn1 | 0.05 | 1 |
| NC(=O)N/N=C/CCc1ccccc1 | -1 | nt |
| S=C(Nc1ccc2c(c1)OCCO2)Nc1ccccc1N1CCOCC1 | -0.1 | 0.35 |
| O=C(O)c1ccc(-n2cc(-c3nc4ccccc4o3)cn2)cc1 | nt | 8.4 |
| CCOC(=O)NS(=O)(=O)c1ccccc1 | -0.05 | 0.8 |
| CC(=O)Nc1cccc(C(=O)NCC2(N3CCCCC3)CCCCC2)c1 | -0.35 | nt |
| Nc1ncc(-c2nc3ccccc3o2)c(-c2ccncc2)n1 | nt | -0.4 |
| Cc1nn(CC(=O)NC2CCCCCC2)c(=O)c2cc3occc3n12 | -0.35 | -0.6 |
| COc1ccc(C(=O)OCC(=O)N2C(C)CCCC2C)cc1 (stereo not given) | -0.7 | nt |
| Cn1c(-c2ccc3nc(-c4ccc(N)cc4)[nH]c3c2)nc2cc(N)ccc21 | -0.65 | 68 |
| NCc1nc2ccccn2c1Br | 0.1 | 1 |
| COc1cccc(/C=C2\CCC(C3CCCC3)C2=O)c1OC (stereo not given) | -0.65 | 0.58 |
| COc1ccc(C2C(C#N)=C(N)OC3=C2C(=O)CC(c2ccccc2)C3)cc1 (stereo not given) | -0.85 | -0.17 |

Of the compounds above, two have a nitro group on carbon:
| SMILES | AID504770 | Ba CapD inh |
| --- | --- | --- |
| CCOC(=O)CSc1nc2ccc([N+](=O)[O-])cc2s1 | nt | -0.11 |
| CCOC(=O)c1cnn(-c2c([N+](=O)[O-])c(C)nn2C)c1N | nt | 0.045 |

Continued:
| SMILES | AID504770 | Ba CapD inh |
| --- | --- | --- |
| CN(C)c1nc(C2CC2)nc2c1nnn2Cc1ccccc1Cl | 1.9 | nt |
| CC1CCN(S(=O)(=O)c2cccc(C(=O)Nc3ccccc3C(=O)N3CCN(c4ccccc4)CC3)c2)CC1 | nt | 0.71 |
| CCOc1ccc(NC(=S)NC(C)(C)C)cc1 | 1 | nt |
| CSc1ncccc1C(=O)Nc1ccnn1Cc1ccccn1 | 1.6 | nt |
| Cc1ccc(/C=N\NC(=O)c2cc(C)oc2C)cc1 | -1.6 | -0.23 |
| CC1CCCC(C)N1CC(O)Cn1cc(/C=N/O)c2ccccc21 (stereo not given) | 0.1 | -1.5 |
| O=C(CCSCc1ccc(Cl)cc1)NCc1cccnc1 | 0.1 | nt |
| CC(=O)N1CCC(N(c2ccc3c(c2)OCO3)S(=O)(=O)c2ccccc2)CC1 | -0.25 | nt |
| CC(C)COC(=O)c1c(N)n(-c2ccc(S(N)(=O)=O)cc2)c2nc3ccccc3nc12 | -0.4 | nt |
| CC[N+]1(C)CCCC(OC(=O)C(O)(c2ccccc2)c2ccccc2)C1 (stereo not given) | 1.3 | -1.3&-0.19 |
| Cc1ccc(C)c(S(=O)(=O)Nc2ccccc2C(=O)OCc2nnc(-c3ccccc3)o2)c1 | 1.6 | nt |
| N#Cc1c(N)nc(SCC(=O)c2ccc(Cl)cc2)c(C#N)c1-c1ccco1 | -0.4 | nt |
| c1cncc(Cc2nnc(N3CCC4(CC3)OCCO4)c3ccccc23)c1 | -0.1 | -0.68 |
| COc1ccc(Br)c(-c2nc(CS(=O)(=O)c3ccsc3)no2)c1 | 0.35 | -1.4 |
| Cc1cc(C)c(Cn2cccc2C2=NC(C(C)C)CO2)c(C)c1 (stereo not given) | 0 | -0.69 |

In a second layout: results already given.
structure: Cc1ccc(/C=N\NC(=O)c2cc(C)oc2C)cc1
  AID504770: -1.6 | Ba CapD inh: -0.23

structure: CN(C)c1nc(C2CC2)nc2c1nnn2Cc1ccccc1Cl
  AID504770: 1.9 | Ba CapD inh: nt

structure: CC1CCN(S(=O)(=O)c2cccc(C(=O)Nc3ccccc3C(=O)N3CCN(c4ccccc4)CC3)c2)CC1
  AID504770: nt | Ba CapD inh: 0.71

structure: CCOc1ccc(NC(=S)NC(C)(C)C)cc1
  AID504770: 1 | Ba CapD inh: nt

Remaining list, next part
| SMILES | AID504770 | Ba CapD inh |
| --- | --- | --- |
| CCOC(=O)N1CCN(C(=O)CN2C(=O)c3cc(Cl)c(Cl)cc3C2=O)CC1 | 1.8 | -0.43 |
| O=c1[nH]c2sc3c(c2c(=O)n1-c1ccccc1)CCCC3 | -0.05 | nt |
| CCOc1ccsc1C(=O)NNC(=O)OCC1COc2ccccc2O1 (stereo not given) | nt | -0.21 |
| N#CCCC1(CCC#N)c2ccccc2-c2ccccc21 | nt | -0.01 |
| CCC(=O)Nc1ccc(C)cc1C | -0.2 | 0.42 |

Assay outcomes deposited in PubChem BioAssay by ICCB-Longwood Screening Facility, Harvard Medical School.
